Polio RdRp inh = poliovirus RNA polymerase inhibition. P03300. poliovirus polymerase elongation, fluorescence polarization; active compounds read low. % elongation, % (compound at 16.7 µg/mL). actives 0.66% (n = 150,000); in the data active means % elongation below about 90%; further: some results filed as inactive read as strong as hits
Target sequence (P03300 1749-2209 limits assumed): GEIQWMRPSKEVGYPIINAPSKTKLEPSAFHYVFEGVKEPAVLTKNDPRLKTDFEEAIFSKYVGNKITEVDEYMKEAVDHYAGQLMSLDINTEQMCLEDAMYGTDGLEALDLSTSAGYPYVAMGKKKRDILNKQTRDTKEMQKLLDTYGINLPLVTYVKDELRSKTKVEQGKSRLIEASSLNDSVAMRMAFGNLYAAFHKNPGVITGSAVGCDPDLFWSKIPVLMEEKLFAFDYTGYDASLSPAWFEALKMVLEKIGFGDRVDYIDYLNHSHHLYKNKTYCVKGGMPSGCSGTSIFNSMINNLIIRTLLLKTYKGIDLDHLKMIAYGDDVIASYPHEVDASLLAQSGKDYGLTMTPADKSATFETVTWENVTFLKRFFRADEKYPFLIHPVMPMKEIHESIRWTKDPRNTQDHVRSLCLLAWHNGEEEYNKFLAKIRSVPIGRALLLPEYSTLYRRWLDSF
Polio RdRp inh intensity = second read-out of Polio RdRp inh, no call of its own (marks repeat the call); % elongation; measured here: total intensity read-out; formula for this scale not given here;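 total fluorescence in place of polarization; lower means less elongation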
Active calls of the source: *.

Every second line gives: Polio RdRp inh	Polio RdRp inh intensity
1. Cc1ccc(Cn2cc(C(=O)c3ccc4c(c3)OCO4)c(=O)c3cc(C)ccc32)cc1
→ 108	111
2. CCOc1ccccc1C1CC(=O)NC(C)=C1C(=O)OCc1ccc(C)cc1 (stereo unspecified)
→ 103	104
3. COc1ccc(OC)c(-n2cnc3cc(C(=O)NCCc4ccccc4)ccc32)c1
→ 105	107
4. CCOC(=O)c1c(NC(=O)COc2ccc(F)cc2)sc2c1CCC(C)C2 (stereo unspecified)
→ 103	103
5. COc1cccc(N2CCN(C(=O)c3nc(-c4ccc(Cl)cc4)n4c3CCCCC4)CC2)c1
→ 113	111
6. COc1ccc2c(CNCc3ccco3)c(C(=O)O)n(Cc3ccccc3)c2c1
→ 105	107
7. O=C(Cn1c(-c2cccs2)cc2cc(F)ccc21)NCCc1ccc(Cl)cc1
→ 104	111
8. CCOC(=O)C1CCCN(C(=O)Cn2ncc3c4ccccc4n(Cc4ccc(F)cc4)c3c2=O)C1 (stereo unspecified)
→ 108	101
9. Cc1ccc(N(C)S(=O)(=O)c2ccc3c(c2)C(C)(C)C(=O)N3C)cc1C
→ 108	113
10. O=S(=O)(Nc1cc(F)ccc1F)c1ccc2[nH]c3c(c2c1)CCCCC3
→ 103	103
11. Cn1nc(-c2ccc(OCC(=O)Nc3ccccc3)cc2)c2ccccc2c1=O
→ 107	109
12. Cc1ccc(Cl)cc1NC(=O)CSc1nc2c(c(=O)[nH]1)CN(Cc1ccccc1)CC2
→ 112	107
13. CCc1ccccc1-n1nnc(-c2nsc(NC(=O)c3ccc(C)c(C)c3)n2)c1C
→ 115	109
14. O=C(Nc1ccccc1[N+](=O)[O-])c1csnn1
→ 102	106
15. Cc1cc(C)n(CCc2nc3c4ccccc4nc(N4CCN(c5cccc(C)c5C)CC4)n3n2)n1
→ 105	108
16. CCOC(=O)c1c(C)c(-c2ccccc2)n(CC(=O)NC2CCCCCC2)c1C
→ 106	109
17. Cc1cc2c(cc1NS(=O)(=O)c1ccc(Br)cc1)n(C)c(=O)c(=O)n2C
→ 104	98
18. COc1ccc(-c2c3c(=O)n(C)c(=O)n(C)c3c3n2-c2ccccc2NC3c2ccc(O)cc2O)cc1 (stereo unspecified)
→ 107	109
19. Fc1ccc([C@@H]2Nc3ccccc3[C@@H]3C=CC[C@@H]32)cc1
→ 108	127
20. O=C1CN(C(=O)COc2ccccc2)C(c2ccc(F)cc2)c2cc(Br)ccc2N1 (stereo unspecified)
→ 101	103

Following part:
Every second line gives: Polio RdRp inh	Polio RdRp inh intensity
21. CS(=O)(=O)c1cccc(-c2nnc(NC(=O)c3ccc4c(c3)OCCO4)o2)c1
→ 109	111
22. Cn1c(SCC(=O)N2CCOCC2)ncc(C(=O)Nc2ccccc2)c1=O
→ 116	105
23. Cc1ccc(C)c(Nc2nn3c(=O)c4cc5c(cc4nc3s2)OCO5)c1
→ 104	107
24. COc1cccc(NC(=O)Cn2c(=O)n(Cc3ccco3)c(=O)c3cc(OC)c(OC)cc32)c1
→ 105	103
25. COc1ccc(NC(=O)CN2C(=O)CSc3ccc(S(=O)(=O)N(C)C)cc32)cc1Cl
→ 100	103
26. COc1cccc(OC)c1C(=O)Nc1cccc(-c2cn3ccsc3n2)c1
→ 104	107
27. CCOC(=O)c1noc2nc(C)n(CC(=O)Nc3ccccc3F)c(=O)c12
→ 104	99
28. Cc1ccccc1-n1c(/C=C/c2c(C)n(C)c3ccccc23)nc2ccccc2c1=O
→ 113	122
29. CC(=O)Nc1ccc(C(=O)Nc2ccc3c(c2)N(C2CCCC2)C(=O)c2ccccc2S3)cc1
→ 106	112
30. CCOc1ccccc1NC(=O)CSc1c(C)cnc2c1c(=O)n(C)c(=O)n2C
→ 101	106
31. Cc1cccc(Nc2cc(C)nc3nc(Cc4ccc(Cl)cc4)nn23)c1
→ 110	104
32. Cc1cc(S(=O)(=O)C(CNC(=O)COc2ccccc2)c2cccs2)ccc1F (stereo unspecified)
→ 109	103
33. O=C(CSc1nc(=O)n(Cc2ccco2)c2c1CCC2)NCc1ccc(F)cc1
→ 106	109
34. CCn1cc(S(=O)(=O)c2cccc(C)c2)c(=O)c2cc(F)c(N3CCN(c4ccccc4)CC3)cc21
→ 107	112
35. O=C(NCCc1nc2ccccc2n1Cc1ccccc1F)c1ccc(F)cc1
→ 108	112
36. COc1ccccc1C1Nc2ccccc2-n2c(-c3ccccc3)c3c(=O)n(C)c(=O)n(C)c3c21 (stereo unspecified)
→ 111	109
37. CCOC(=O)c1ccc(Oc2nc(C)nc3c2oc2ccccc23)cc1
→ 102	108
38. COc1ccc(N2CCN(C(=O)c3ccc(Nc4nc5ccccc5n5nnnc45)cc3)CC2)cc1
→ 101	104
39. COc1cccc(CNC(=O)C(=O)NCC(c2ccco2)S(=O)(=O)c2ccccc2)c1 (stereo unspecified)
→ 99	101
40. COc1ccc(Br)cc1C1Sc2ccccc2NC2=C1C(=O)c1ccccc12 (stereo unspecified)
→ 110	112

Other structures follow.
Every second line gives: Polio RdRp inh	Polio RdRp inh intensity
41. COc1cccc(CN2C(=O)C3(SCC(=O)N3c3ccc(F)cc3)c3ccccc32)c1 (stereo unspecified)
→ 97	102
42. Cc1sc2ncn(CC(=O)N(C)c3cccc(C(F)(F)F)c3)c(=O)c2c1S(=O)(=O)N1CCN(c2ncccn2)CC1
→ 106	104
43. O=C1c2[nH]nc(-c3ccccc3O)c2C(c2cccc(O)c2)N1Cc1ccncc1 (stereo unspecified)
→ 107	109
44. CCOc1ccccc1NC(=O)CC(c1ccc(F)cc1)N1Cc2ccccc2C1=O (stereo unspecified)
→ 105	105
45. Cc1ccc(NC(=O)CSc2nnc(C)n3c2cc2sccc23)c(C)c1
→ 101	97
46. COCCCn1c(=N)c(C(=O)NCc2ccco2)cc2c(=O)n3cccc(C)c3nc21
→ 108	111
47. Cc1cc(C)cc(NC(=O)CCCn2c(=O)c3cccn3c3ccccc32)c1
→ 111	114
48. Cc1ccc(CN2CCN(C3CCN(C(=O)OC(C)(C)C)CC3)C(=O)C2=O)cc1
→ 98	93
49. CCCCn1nc(NC(=O)c2cccc(Cl)c2)c2cc3ccccc3nc21
→ 124	119
50. CCOC(=O)c1cc(OC(=O)c2cccc(F)c2)n(-c2ccccc2)n1
→ 101	105
51. Cc1ccc2c(c1)N(S(=O)(=O)c1ccc3c(c1)NC(=O)CC(=O)N3)CCO2
→ 106	116
52. CC1=C(C(=O)Nc2ccc(C)cc2C)C(c2ccccc2F)n2nc(SCC(=O)c3ccc(C)cc3)nc2N1 (stereo unspecified)
→ 110	101
53. CCOC(=O)c1c(C)c(-c2ccccc2)n(CC(=O)NCc2cccc(OC)c2)c1C
→ 108	112
54. COc1cc(NC(=O)Cn2cnc3c2c(=O)n(C)c(=O)n3C)c(OC)cc1Cl
→ 102	104
55. COc1ccccc1CNC(=O)COc1cc(=O)n(C)c2ccccc12
→ 104	108
56. CCc1ccc2nc(N3CCC(C(=O)O)CC3)sc2c1
→ 108	112
57. COc1ccc(-c2nnc(SCC(=O)Nc3cccc(C(F)(F)F)c3)s2)cc1
→ 113	117
58. O=C(CSc1n[nH]c(-c2ccccc2Cl)n1)NCc1ccc(F)cc1
→ 109	113
59. CCC(=O)Nc1nnc(S(=O)(=O)N2CCc3ccccc32)s1
→ 106	111
60. Cc1ccc(C)c(N2CCN(CCCNC(=O)c3cnn(-c4ccccc4)c3C3CCN(C(=O)OC(C)(C)C)CC3)CC2)c1
→ 103	98

Entries from the list above containing a COOH group, in the order listed:
Every second line gives: Polio RdRp inh	Polio RdRp inh intensity
6. COc1ccc2c(CNCc3ccco3)c(C(=O)O)n(Cc3ccccc3)c2c1
→ 105	107
56. CCc1ccc2nc(N3CCC(C(=O)O)CC3)sc2c1
→ 108	112

Profiles from above.
`Cc1ccc2c(c1)N(S(=O)(=O)c1ccc3c(c1)NC(=O)CC(=O)N3)CCO2` is listed with Polio RdRp inh = 106; Polio RdRp inh intensity = 116
`CCCCn1nc(NC(=O)c2cccc(Cl)c2)c2cc3ccccc3nc21` is listed with Polio RdRp inh = 124; Polio RdRp inh intensity = 119

The main list resumes with the two entries that preceded the break.
Every second line gives: Polio RdRp inh	Polio RdRp inh intensity
59. CCC(=O)Nc1nnc(S(=O)(=O)N2CCc3ccccc32)s1
→ 106	111
60. Cc1ccc(C)c(N2CCN(CCCNC(=O)c3cnn(-c4ccccc4)c3C3CCN(C(=O)OC(C)(C)C)CC3)CC2)c1
→ 103	98
61. CCOC(=O)c1sc2ccccc2c1S(=O)(=O)NCc1ccccc1OC
→ 105	111
62. O=C(CSc1nc(-c2ccc(F)cc2)cc(C(F)(F)F)n1)NCCc1ccccc1
→ 97	99
63. Cn1nnc2c(NCc3ccccc3)ncnc21
→ 111	108
64. CCC(=O)N1CCc2cc(Br)cc(S(=O)(=O)N3CCCC(C(=O)N(C)c4ccc(Br)cc4)C3)c21 (stereo unspecified)
→ 102	98
65. Cc1cc(C)cc(OCC(=O)Nc2ccc(Cl)cc2C(=O)c2ccccc2)c1
→ 103	110
66. O=C(Cn1ncc2c3ccccc3n(Cc3cccc(Cl)c3)c2c1=O)N1CCCCC1
→ 136	147
67. COC(=O)c1ccc(NC(=O)CCn2cnnn2)c(C)c1
→ 107	109
68. Cc1ccc(NC(=O)c2oc3ccc(S(=O)(=O)N4CCOCC4)cc3c2C)c(C)c1
→ 102	99
69. CCC(=O)N1c2ccc(S(=O)(=O)NCCc3ccccc3)cc2CC1C (stereo unspecified)
→ 111	110
70. Cc1cc(NC(=O)CN2C(=O)C(C)(C)c3ccccc32)ccc1Br
→ 110	110
71. CC(=O)c1cccc(S(=O)(=O)N2CCN(c3ccccc3F)CC2)c1
→ 109	103
72. COc1cccc(-n2c(SCc3ccc(F)cc3)nc3c([nH]c4ccccc43)c2=O)c1
→ 111	115
73. COc1ccccc1N1CCN(S(=O)(=O)CCNC(=O)C(c2ccccc2)c2ccccc2)CC1
→ 105	106
74. COc1ccc(NC(=O)CSC2=Nc3ccccc3C3=NC(CC(=O)NCc4ccccc4OC)C(=O)N23)cc1Cl (stereo unspecified)
→ 112	115
75. CCOc1ccc(CNS(=O)(=O)c2cc3c(cc2C)NC(=O)CO3)cc1
→ 97	98
76. CCCCC12CN3CC(C)(CN(C1)C3c1cc(Br)ccc1O)C2=O (stereo unspecified)
→ 105	111
77. CCCCc1nn2c(=O)cc(COC(=O)c3cccc(Cl)c3)nc2s1
→ 102	107
78. CCc1cccc(C)c1NC(=O)CN1C(=O)c2ccccc2Sc2ncccc21
→ 105	106
79. CCOC(=O)N1CCc2c(sc(NCc3cccc(F)c3)c2C(=O)Nc2ccc(OC)cc2)C1
→ 102	94
80. COc1ccc(N2CCN(c3ncnc4c3nc3n4CCCCC3)CC2)cc1
→ 103	107

Some of these compounds in order of molecular weight, smallest number first.
Every second line gives: Polio RdRp inh	Polio RdRp inh intensity
76. CCCCC12CN3CC(C)(CN(C1)C3c1cc(Br)ccc1O)C2=O (stereo unspecified)
→ 105	111
68. Cc1ccc(NC(=O)c2oc3ccc(S(=O)(=O)N4CCOCC4)cc3c2C)c(C)c1
→ 102	99
72. COc1cccc(-n2c(SCc3ccc(F)cc3)nc3c([nH]c4ccccc43)c2=O)c1
→ 111	115

Continuation.
Every second line gives: Polio RdRp inh	Polio RdRp inh intensity
81. CC1CCCCN1C(=O)CSc1nc2ccccc2nc1Cc1ccccc1 (stereo unspecified)
→ 99	99
82. CCc1ccc(NC(=O)CC2C(=O)N(c3cccc(C)c3)C(=O)N2Cc2ccc(F)cc2)cc1 (stereo unspecified)
→ 109	102
83. COC(=O)c1ccccc1NC(=O)[C@H]1O[C@@H]2OC(C)(C)O[C@@H]2[C@H]2OC(C)(C)O[C@H]21
→ 103	107
84. O=C1COc2cc(S(=O)(=O)NCc3ccco3)c(Cl)cc2N1
→ 104	118
85. N#C/C(=C\c1ccc(-c2ccccc2C(=O)O)o1)c1nc2ccccc2[nH]1
→ 129	148
86. O=C(c1ccc2c(c1)N(Cc1ccc(Cl)cc1)C(=O)c1ccccc1S2(=O)=O)N1CCc2ccccc21
→ 106	107
87. CCOc1ccccc1N(C)C(=O)c1c2c(nc3ccccc13)C(=O)N(C1CCCCC1)C2
→ 102	103
88. CC(=O)Nc1ccc(NC(=O)c2cc(=O)c3ccccc3o2)cc1
→ 107	99
89. CCc1ccc(-c2cc(C)no2)cc1S(=O)(=O)NCc1ccco1
→ 108	115
90. Cc1cc(Cl)ccc1NC(=O)c1cc(S(=O)(=O)N2CCOCC2)cn1C
→ 102	96
91. CCc1ccc2c(c1)NC(c1ccc(F)cc1)=NC(c1ccncc1)=N2
→ 112	108
92. Cc1cc(C)c(/C=C/c2onc(C)c2S(=O)(=O)N2CCC(C(=O)Nc3ccc(Cl)c(C(F)(F)F)c3)CC2)c(C)c1
→ 101	106
93. COc1ccc(NC(=O)Cn2cnc3sc(C)c(S(=O)(=O)N4CCN(c5ccccc5OC)CC4)c3c2=O)cc1OC
→ 106	112
94. CSc1nn(Cc2ccc(Cl)cc2)c(N(C(C)=O)C(C)=O)c1S(=O)(=O)c1ccccc1
→ 108	114
95. Cn1c(=O)n(-c2ccc3c(c2)OCO3)c2nc(-c3ccc(Cl)cc3)nc(C(N)=O)c21
→ 104	107
96. O=C(CSc1ncc2c(n1)-c1ccccc1N(Cc1ccc(Cl)cc1)S2(=O)=O)c1ccccc1
→ 108	99
97. COc1ccccc1CNc1ncnc2onc(-c3ccc(Cl)cc3)c12
→ 109	110
98. COc1cccc(-c2nc(CS(=O)CC(=O)N3CCN(c4cccc(C(F)(F)F)c4)CC3)c(C)o2)c1 (stereo unspecified)
→ 111	114
99. COc1cc(NC(=O)CCCOc2cc(=O)n(C)c3ccccc23)cc(OC)c1OC
→ 98	99
100. Cn1c(=O)[nH]c2cc(-c3noc(-c4ccc(C#N)cc4)n3)ccc21
→ 105	110

Next entries
Every second line gives: Polio RdRp inh	Polio RdRp inh intensity
101. CCOc1ccc(/C=C/c2nc(C#N)c(N(C)C)o2)cc1
→ 118	108
102. O=C(Cc1ccc(Cl)cc1)Nc1ccc2oc(-c3ccc(F)cc3)nc2c1
→ 105	109
103. Oc1c(C(c2cccc(Cl)c2)N2CCOCC2)sc2nc(-c3ccco3)nn12 (stereo unspecified)
→ 105	108
104. CCCCCc1nn2cc(-c3ccccc3)nc2s1
→ 104	100

Bioassay records (PubChem)

A portion of the library (hit frequency here may not be typical).
